Sa ugtP lethal – growth inhibition of ugtP-null S. aureus, primary screen, RN4220 ugtP deletion, OD600 | 16 h; some inactives read as strong as hits | growth inhibition, % (concentration not given with the values) | 0.54% of 330,000 active;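 active = z-score under -3 and OD600 up to 0.15 on both plates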;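 note: plate controls were untreated wells for no effect and antibiotic for full effect; wells of about 80 µL received 100 nL stock; the first replicate is given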
Mtb hypoxia rep – PubChem AID 1159583. 0.1% of 300,000 active. fluorescence inhibition, % (concentration not given with the values). M. tuberculosis hypoxia-regulated fluorescent reporter, fluorescence;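 active = 35 to 45% if threefold the growth effect, above 45% if 1.5-fold the growth effect; inactive = the rest, general growth blockers included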;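 note: wells of about 50 µL received 100 nL stock; 0% = vehicle wells and 100% = reference inhibitor wells; whole bacteria with a GFP reporter of the hypoxia response; strong numbers were not always called active; many hits fall short of the cut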
PrP UTR inh – inhibition of PrP 5' UTR reporter expression; cell-based PrP 5' UTR mRNA reporter, plate reader; inhibition, % (test concentration not listed); 0.35% of 340,000 active;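 active = every replicate at 50% or more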;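 note: 0 = median of the neutral control wells; tested in H4 reporter cells; numbers are from one replicate; inactives centre near -14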
Bead autofluor – compound fluorescence in toxin protease inhibitor counterscreen; compound autofluorescence counterscreen, microsphere flow cytometry; stronger effect = higher value; fluorescence intensity (no concentration beside the values); 3.1% of 360,000 active; AID 624483;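 active = at least 3 SD above the mean of all compounds, about 16000 in these data; inconclusive = too few beads counted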;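 note: 100 nL of 1 mM stock went into each well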
RN4220 kill – growth inhibition of S. aureus RN4220, primary screen, OD600. 16 h. 0.33% of 330,000 active. AID 1259311, 2017. inhibition, % (concentration not given with the values);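 active = z-score of -3 or lower and OD600 up to 0.18 on both plates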;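 note: plate controls were untreated cells for no effect and reference antibiotic for full effect; stock transfer was 100 nL into about 80 µL; one replicate is shown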
BJeLR viability – MLPCN primary cell-based screen for lethality selective to Ras in HRASV12 cells; BJeLR (HRASV12) viability, CellTiter-Glo ATP luminescence, 48 h; reference of the scale not given here; inhibition, % (concentration not given with the values); 0.17% of 300,000 active; AID 1554, 2009;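 active = replicate mean above 50%; inconclusive = above 50% but judged a plate artefact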;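 note: 50 nL library stock added to about 25 µL; numbers are from one replicate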
Mtb hypoxia rep growth – also measured in Mtb hypoxia rep; calls as there; growth inhibition, %; measured here: M. tuberculosis growth (absorbance);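 0% = vehicle and 100% = reference antibiotic; read after six days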
* hit, by the source's call; ? = inconclusive; nt = no result given.

SMILES | Sa ugtP lethal | Mtb hypoxia rep | Mtb hypoxia rep growth | PrP UTR inh | Bead autofluor | RN4220 kill | BJeLR viability
COC(=O)C1=C(C(=O)OC)C(c2ccc(OC)c(OC)c2)c2sc(=O)[nH]c2S1 (stereo not drawn) | 8 | 11 | 7 | -25 | 2676 | 1.7 | -2
Cc1cccc(NC(=O)CN2CCN(C(=O)c3oc4c(Cl)cccc4c3C)CC2)c1C | -7 | -2 | 3 | 2 | 3525 | -4.7 | nt
CCOC(=O)N1CCN(Cc2nc(N)nc(Nc3ccc(C)cc3)n2)CC1 | 5 | 5 | 5 | -6 | 10473 | 4.4 | 1
O=C(CCN1C(=O)c2ccc([N+](=O)[O-])cc2C1=O)Nc1ccccc1C(=O)O | 9 | 18 | 1 | -23 | ? | 2.8 | 5
CN(C)C(=O)CSc1nnc(-c2cnccn2)n1C | 0 | 9 | 7 | -14 | 8296 | 2.6 | -2
Cc1ccc(C)c(S(=O)(=O)NCC(=O)N2CCCC2)c1 | 3 | 12 | 1 | -31 | 3097 | 4.7 | 15
COC(=O)Nc1ccc(S(=O)(=O)N2CCCC(C(=O)NC3CCCCC3)C2)cc1 (stereo not drawn) | 20 | -1 | 2 | -3 | 3743 | 7.4 | 7
Cc1cccc(N2CC(O)(c3cccs3)[N+]3=C2CCCC3)c1C (stereo not drawn) | 0 | 7 | 2 | -11 | 4270 | 2.8 | 9
O=C(NCc1ccccn1)c1coc(=O)c(Br)c1 | 4 | 4 | 5 | -12 | 3297 | 5.1 | 11
Cc1cc(C(=O)CSc2n[nH]c(N)n2)c(C)n1-c1ccc(F)cc1 | 6 | 3 | 2 | -30 | 22336* | -0.3 | -4
CCn1c(CCc2nc3ccccc3[nH]2)n[nH]c1=S | 7 | 8 | 0 | -18 | 4838 | 3.7 | 5
O=C(O)Cc1csc(NC(=O)CSc2cccc(C(=O)O)n2)n1 | 3 | 11 | 2 | nt | nt | 4.1 | -16
CCOCC(=O)Nc1cc(-c2cn3cccnc3n2)ccc1C | 0 | 4 | 5 | -15 | 22267* | 7.0 | -6
COc1ccc(S(=O)(=O)N2CCc3ccccc32)cc1C(=O)NCCc1ccccn1 | 4 | -2 | 14 | -34 | 3485 | 5.3 | 0
CC(=O)Nc1ccc(NC2=C(Cl)C(=O)c3ccccc3C2=O)cc1 | -4 | 5 | -4 | nt | nt | 19 | 1
COc1ccc(C(=O)NN2C(=O)C3CCC(C)(C2=O)C3(C)C)cc1 (stereo not drawn) | -3 | -6 | -8 | -12 | 10892 | 2.1 | -3
CCOC(=O)c1cnn(-c2ccccc2)c1-n1cccc1C(=O)C(=O)Nc1ccc(F)cc1 | -5 | nt | nt | -10 | 2665 | -2.1 | 4
COCCSc1ccccc1C(=O)Nc1ccncc1 | 5 | 8 | 4 | -16 | 9135 | 4.8 | -4
Cc1cccc(-c2nnc3n2N=C(c2ccccc2)CS3)c1 | 1 | 23 | 3 | -5 | 20710* | 7.9 | -2
Cc1cc2c(c(=O)n1CCc1ccccc1)C(C(C)C)C(C#N)=C(N)O2 (stereo not drawn) | 2 | 14 | 16 | -9 | 4011 | 8.9 | -7
O=C(NCC1CCN(Cc2ccccc2F)CC1)C1CCCN(c2ncnc3c2nc2n3CCCCC2)C1 (stereo not drawn) | 1 | 2 | 5 | -14 | 6131 | 2.4 | 16
CC(=O)n1ccnc1 | nt | nt | nt | -13 | 5532 | nt | 5
COc1ccc(C=c2sc(=CC(=O)c3ccc(C)cc3)[nH]c2=O)cc1OC | -29 | 9 | 1 | nt | nt | 13 | nt
O=C(CN1C(=O)NC2(CCCCCCC2)C1=O)Nc1ccc(Br)cc1Br | -13 | -5 | 4 | -21 | 3857 | 2.4 | nt
O=C(Cn1cc(S(=O)(=O)Cc2ccccc2)c2ccccc21)N1CCOCC1 | 7 | 4 | -1 | -24 | 5809 | 3.7 | -7
Cc1cc(C(=O)CSc2nnc(-c3cccnc3)n2-c2ccccc2F)c(C)n1CC1CCCO1 (stereo not drawn) | -9 | 7 | 8 | -9 | 3289 | -10 | -2
Cc1oc2cc3oc(=O)c(CCC(=O)N[C@H](C(=O)O)C(C)C)c(C)c3cc2c1C | 4 | 7 | 0 | 1 | 3224 | 1.4 | 8
O=C1NC2(CCCCC2)C(=O)N1CCN1C(=O)c2ccccc2C1=O | 10 | 11 | -2 | -25 | 4210 | 3.6 | -6
COC(=O)C1=C(c2ccc(F)cc2OCc2ccccc2)CC2CCC1N2C(=O)NC(C)C (stereo not drawn) | -10 | 3 | 8 | nt | nt | -1.2 | nt
COc1cc2c(cc1NS(=O)(=O)N1CCCCC1)oc1ccccc12 | -16 | 5 | 3 | -8 | 23461* | 0.3 | 11
Cc1ccc(NC(=S)N(CCCN2CCOCC2)Cc2cccnc2)cc1C | 2 | -16 | 1 | 1 | 4135 | 2.1 | -1
O=C(Nc1nc(-c2cccs2)cs1)C1=COCCO1 | 22 | 11 | 3 | -106 | 2578 | 7.9 | 0
O=C(NCCc1ccc2c(c1)OCCO2)c1cc(S(=O)(=O)N2CCCC2)ccc1Br | 5 | 3 | -2 | -4 | 3337 | 2.7 | nt
CCOc1ccc(S(=O)(=O)N2CCCC(C(=O)NCc3cccnc3)C2)cc1C (stereo not drawn) | 5 | 11 | 12 | -13 | 3632 | 6.0 | 2
Cc1ccc(-n2c(O)cnc2Nc2nc(C)cc(C)n2)cc1 | 0 | 5 | 5 | 0 | 5999 | 4.0 | -1
CCN(C(=O)Cn1nnc(-c2ccccc2)n1)C1CCS(=O)(=O)C1 (stereo not drawn) | 5 | 1 | 1 | -11 | 6192 | -1.6 | -4
N#Cc1ccsc1NC(=O)c1cccc([N+](=O)[O-])c1 | 6 | -1 | -4 | -36 | 4217 | 6.3 | 17
O=C(O)/C=C/c1ccc2ccccc2n1 | -11 | -3 | 1 | -12 | 10114 | 3.2 | 3
O=c1cc(CSc2nnc(COc3ccc(Cl)cc3)o2)c2ccccc2[nH]1 | -7 | 10 | 8 | -3 | 4792 | 12 | -9
Nc1cccc(C(=O)Nc2cccc3ncccc23)c1 | 18 | 3 | -5 | -1 | 3146 | 1.1 | 5
CS(=O)(=O)Nc1ccccc1C(=O)NCCSc1ccc(Cl)cc1 | -12 | 0 | 11 | -11 | 3785 | 2.4 | 9
Cc1cc(C)nc(N/N=C/c2ccc([N+](=O)[O-])o2)n1 | nt | nt | nt | -14 | 4054 | nt | 5
Fc1ccc(-c2cc(-c3cccs3)cc(-c3ccccc3)n2)cc1 | 3 | 6 | 9 | -3 | 4543 | -12 | 5
O=C(/C=C/c1ccc(Cl)c([N+](=O)[O-])c1)Nc1ccc(NC(=O)c2ccco2)cc1 | 8 | 6 | -1 | -23 | 2039 | 0.4 | -1
O=S(=O)(N[C@H](CO)c1ccccc1)c1ccc(Br)cc1F | 1 | 0 | 4 | -5 | 3850 | 0.5 | nt
Cc1cccc(NC(=O)CN(C)S(=O)(=O)c2cccc3cccnc23)c1 | 8 | nt | nt | 0 | 4129 | 1.8 | 8
Brc1cc2ccccc2[n+](Cc2ccccc2)c1 | -1 | -3 | -2 | -17 | 3620 | 3.2 | -1
Cc1ccc(C)c(NC(=O)COC(=O)c2ccc3c(c2)OCO3)c1 | 2 | -15 | 7 | -10 | 2189 | 2.3 | 2
CCN1C(=O)c2cccc3c(S(=O)(=O)N(C(=O)c4ccncc4)c4ccc(OC)cc4)ccc1c23 | 4 | 0 | -2 | -14 | 2054 | -2.6 | -5
COc1ccc(-n2ncc3c(=O)n(CC(=O)N4c5ccccc5CC4C)cnc32)cc1 (stereo not drawn) | 17 | 6 | 1 | 3 | 3203 | -2.9 | 1
COCCn1c(SCC(=O)Nc2ccc3c(c2)OCCO3)nc2c(c1=O)SC(C)C2 (stereo not drawn) | 13 | 1 | -3 | -34 | 4495 | 2.6 | nt
CCN1C(=O)NC(c2ccccc2)C(C(=O)OC)=C1C (stereo not drawn) | 14 | 14 | 10 | nt | nt | 8.4 | nt
CC(O)CCC(=O)NNC1CC(=O)N(c2ccccc2)C1=O (stereo not drawn) | -6 | -5 | 1 | -25 | 3945 | -7.4 | 4
CC(Nc1[nH]c(=O)n(C)c(=O)c1N=O)c1ccccc1 (stereo not drawn) | 14 | -4 | 1 | 1 | 3685 | 5.7 | 3
CCCNC(=O)c1onc(CS(=O)(=O)c2cccc(OC)c2)c1C(=O)NCCC | -8 | 12 | 4 | -7 | 2917 | 2.9 | -1
COC(=O)C(Cc1ccc(O)cc1)NC(=O)C(C)NC(=O)c1ccc(C(C)(C)C)cc1 (stereo not drawn) | 7 | 10 | -6 | -29 | 4189 | 1.4 | -4
CC(C)(C)OC(=O)C[C@H]1C/C=C\C[C@H](CC(=O)N[C@@H](CO)Cc2ccccc2)C(=O)N[C@H](C(C)(C)C)COC1=O | 5 | 4 | 8 | -12 | 3471 | 3.8 | nt
Cc1ccc(C(=O)ON=C2CCCc3ccccc32)cc1 | 9 | 15 | 18 | nt | nt | 8.7 | nt
Cc1ccc(N2CC(C(=O)N3CCC4(CC3)CC(=O)c3ccccc3O4)CC2=O)cc1 (stereo not drawn) | 0 | 0 | 12 | 0 | nt | 0.5 | 10
O=C(COCc1cc(-c2cccs2)on1)NC1CCCCC1 | 2 | -2 | 10 | 0 | 5812 | 3.4 | 4

In another format: results already given.
SMILES: Cc1ccc(N2CC(C(=O)N3CCC4(CC3)CC(=O)c3ccccc3O4)CC2=O)cc1 (stereo not drawn)
  Sa ugtP lethal: 0; Mtb hypoxia rep: 0; Mtb hypoxia rep growth: 12; PrP UTR inh: 0; Bead autofluor: nt; RN4220 kill: 0.5; BJeLR viability: 10

SMILES: O=C(COCc1cc(-c2cccs2)on1)NC1CCCCC1
  Sa ugtP lethal: 2; Mtb hypoxia rep: -2; Mtb hypoxia rep growth: 10; PrP UTR inh: 0; Bead autofluor: 5812; RN4220 kill: 3.4; BJeLR viability: 4

Record cards, as listed above:
Shown for `CC(Nc1[nH]c(=O)n(C)c(=O)c1N=O)c1ccccc1` (stereo not drawn) → Sa ugtP lethal = 14; Mtb hypoxia rep = -4; Mtb hypoxia rep growth = 1; PrP UTR inh = 1; Bead autofluor = 3685; RN4220 kill = 5.7; BJeLR viability = 3
Shown for `O=S(=O)(N[C@H](CO)c1ccccc1)c1ccc(Br)cc1F` → Sa ugtP lethal = 1; Mtb hypoxia rep = 0; Mtb hypoxia rep growth = 4; PrP UTR inh = -5; Bead autofluor = 3850; RN4220 kill = 0.5; BJeLR viability = nt
Shown for `Cc1cccc(NC(=O)CN(C)S(=O)(=O)c2cccc3cccnc23)c1` → Sa ugtP lethal = 8; Mtb hypoxia rep = nt; Mtb hypoxia rep growth = nt; PrP UTR inh = 0; Bead autofluor = 4129; RN4220 kill = 1.8; BJeLR viability = 8

Next results
SMILES | Sa ugtP lethal | Mtb hypoxia rep | Mtb hypoxia rep growth | PrP UTR inh | Bead autofluor | RN4220 kill | BJeLR viability
Cc1ccc(C)c(NC(=O)CN(C)C(=O)CSC(C)C(=O)Nc2cc(C)on2)c1 (stereo not drawn) | 10 | 7 | 6 | 3 | 4518 | 5.2 | -5
COc1cccc(CNC(=O)COC(=O)c2cc([N+](=O)[O-])ccc2N2CCCC2)c1 | -1 | 8 | 7 | 84* | 3425 | 9.1 | nt
O=C1Nc2c(c(=O)[nH]c(=O)n2-c2ccccc2)C(C(F)(F)F)(C(F)(F)F)N1 | 9 | 2 | 0 | -25 | 11001 | 1.1 | 1
CCOc1ccccc1NC(=O)CSc1nnc(CCC(=O)Nc2ccccc2F)n1C | 13 | 2 | -2 | -18 | 4237 | 1.8 | -2
CSc1ccc(CN(C)C(=O)c2cc(=O)[nH]c3ccccc23)cc1 | 9 | 14 | 2 | -40 | 4161 | 3.1 | -16
CCC(CC)C(=O)N(CCc1ccc(OC)cc1)Cc1nc2ccccc2c(=O)[nH]1 | -3 | 7 | 5 | -6 | 5794 | 6.6 | -7
NC(=S)N/N=C/c1ccc(-c2cccc([N+](=O)[O-])c2)o1 | nt | nt | nt | -3 | 3205 | nt | -11
OCC1(CCOc2ccccc2)CCN(Cc2nc3ccc(F)cc3[nH]2)CC1 | -4 | 8 | 1 | -13 | 2702 | 1.9 | -6
CC(NC(=O)c1ccccc1NC(=O)c1ccccc1)C(=O)N1CCOCC1 (stereo not drawn) | 1 | -1 | -4 | -23 | 2452 | 0.4 | -15
Cc1ccc(C=NNC(=O)Cn2ccc(C(F)(F)F)n2)o1 | 8 | 3 | 2 | nt | nt | 3.8 | nt
COc1ccccc1C1/C(=C(/O)c2ccccc2)C(=O)C(=O)N1CCO (stereo not drawn) | nt | nt | nt | -8 | 3109 | nt | -2
Clc1ccc2nc(N3CCN(c4ccccc4)CC3)sc2c1 | 1 | 13 | 11 | -70 | 8604 | 6.9 | 10

From PubChem BioAssay
